rRNA inh HTS – inhibits bacterial ribosomal RNA function over humanized ribosomes | GFP signal change (wild-type ribosome), % (no concentration beside the values) | actives 1.6% (n = 350,000) | E. coli WT GFP vs humanized-ribosome RFP mutants, fluorescence, 24 h; stronger effect = lower value; DMSO median 0, no signal -100;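 active = significant combined selectivity score with lowered wild-type GFP, culture density cut under 30%, mutant RFP and density less affected; inactive = any of these conditions unmet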; also: one replicate is shown; some compounds called inactive have numbers as strong as hits
rRNA inh HTS OD600 – second read-out of rRNA inh HTS, no call of its own (marks repeat the call); OD600 change, %; measured here: OD600 growth;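 optical density of the mix in the first replicate; 0 = DMSO median and -100 = no signal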
rRNA inh HTS RFP – further read-out of rRNA inh HTS, marked with its call; RFP signal change, %; measured here: RFP humanized mutant strains;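 first replicate; 0 = DMSO median and -100 = no signal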
* hit, by the source's call; & = joins results of further samples.

[1] O=C(C[C@@H]1C=C[C@@H](NC(=O)C2CC2)[C@H](CO)O1)NCCCN1CCOCC1
[2] O=C(c1cccnc1)N1C[C@H]2[C@@H](c3ccccc31)[C@H](CO)N2C(=O)Nc1ccccc1
[3] C[C@@H]1CN([C@H](C)CO)C(=O)c2cc(NS(C)(=O)=O)ccc2O[C@@H](C)CCCCO[C@@H]1CN(C)C(=O)c1ccncc1
[4] COc1ccc(CC(=O)N2CCC(C)(C(=O)NS(=O)(=O)C3CC3)C2)cc1OC (stereo unspecified)
[5] CCCCS(=O)(=O)N1CCCc2nc(CC)c(CC)cc21
[6] CN(C)C(=O)C[C@@H]1CC[C@@H]2[C@H](COc3ccc(NC(=O)C4CCOCC4)cc3C(=O)N2C)O1
[7] CN(C)CC(=O)N[C@@H]1CC[C@@H](CCNC(=O)C2CCCCC2)O[C@@H]1CO
[8] COc1ccc(CN(C)C[C@H]2Oc3c(NC(=O)NC4CCCCC4)cccc3C(=O)N([C@@H](C)CO)C[C@H]2C)cc1
entry no.	1	2	3	4	5	6	7	8
rRNA inh HTS	1.8	5.2	3.6	13.2	-27.6	1.7	1.4	1.6
rRNA inh HTS RFP	-0.6	-2.2	1.0	0.3	-9.5	-0.6	-3.3	-0.6
rRNA inh HTS OD600	3.8	8.2	6.2	15.8	-47.5	4.9	-3.7	4.4

[9] Cc1noc(C)c1NC(=O)N(C)C[C@H]1OCCCC[C@H](C)Oc2ccc(NS(C)(=O)=O)cc2C(=O)N([C@@H](C)CO)C[C@H]1C
[10] CC(C)c1cccc(-c2csc(C(O)c3ccccc3)n2)c1 (stereo unspecified)
[11] C[C@@H]1CN([C@H](C)CO)C(=O)Cc2cc(NC(=O)Nc3cccc4ccccc34)ccc2O[C@H]1CN(C)C(=O)Nc1ccc(F)cc1
[12] COc1cccc(NC(=O)C[C@H]2CC[C@@H]3[C@@H](COc4ccc(NC(=O)C5CCOCC5)cc4C(=O)N3C)O2)c1
[13] C[C@H](CO)N1C[C@H](C)[C@H](CN(C)C(=O)Nc2ccc(-c3cccs3)cc2)OCc2cnnn2CCCC1=O
[14] C[C@@H]1CCCCO[C@@H](CN(C)C(=O)CCCN(C)C)[C@@H](C)CN([C@H](C)CO)C(=O)c2cc(NC(=O)NC3CCCCC3)ccc2O1
[15] Cc1cccc(C)c1-n1nnnc1C1(C)CCC(=O)N1Cc1cccs1 (stereo unspecified)
[16] Cc1ccc(C(=O)OCC(=O)Nc2ccc(C)c(S(=O)(=O)N3CCCCC3)c2)o1
entry no.	9	10	11	12	13	14	15	16
rRNA inh HTS	2.2	-59.8	-2.6	-1.7	4.2&-2.2	3.8	-20.6*	-11.1
rRNA inh HTS RFP	-1.6	-20.9	0.0	0.0	-7.6&-1.0	-3.1	3.6*	2.5
rRNA inh HTS OD600	16.9	-77.5	-7.7	-4.0	-5.4&-0.6	2.8	-11.2*	-7.6

[17] O=C(Nc1cccc2c1CCCC2)c1cc(C2CCCCN2S(=O)(=O)c2cccs2)on1 (stereo unspecified)
[18] O=C(CCCN1CCC(C(O)c2ccc(F)cc2)CC1)c1ccc(F)cc1 (stereo unspecified)
[19] CO[C@H]1CN(C)C(=O)c2cc(NS(=O)(=O)c3ccc(C)cc3)ccc2OC[C@H](C)NC[C@@H]1C
[20] O=C(NCCO)OC1CC2CC1[C@H]1CCCCN1C2=O (stereo partly specified)
[21] COCCNC(=O)[C@@H]1[C@@H](CO)[C@@H]2Cn3c(cccc3=O)[C@H]1N2Cc1cccc(Cl)c1
[22] COc1ccc(-c2ccc([C@@H]3[C@@H](CO)N4C(=O)CN(C(=O)C5CCC5)C[C@@H]34)cc2)cc1
[23] C[C@@H]1CN([C@H](C)CO)S(=O)(=O)c2ccc(C#C[C@@H](C)O)cc2O[C@@H]1CN(C)C(=O)c1ccncc1
[24] COc1cccc(C(=O)N2C[C@@H]3[C@H](c4ccccc42)[C@H](CO)N3C(=O)c2ccc(F)cc2)c1
entry no.	17	18	19	20	21	22	23	24
rRNA inh HTS	5.9	12.1	-0.6	24.5	1.7	2.0	0.8	2.7
rRNA inh HTS RFP	0.2	0.3	1.1	1.1	0.6	7.9	-2.8	0.0
rRNA inh HTS OD600	5.2	12.9	0.9	19.8	12.9	-9.6	9.5	4.7

[25] C[C@@H]1CN([C@H](C)CO)S(=O)(=O)c2ccc(C3=CCCCC3)cc2O[C@H]1CN(C)Cc1cccnc1
[26] C[C@H]1CCCCO[C@H](CN(C)C(=O)CCC(F)(F)F)[C@@H](C)CN([C@@H](C)CO)C(=O)c2cc(NS(=O)(=O)c3ccc(F)cc3)ccc2O1
[27] C[C@@H]1CN([C@@H](C)CO)S(=O)(=O)c2ccc(-c3ccc(C#N)cc3)cc2O[C@@H]1CN(C)C(=O)CN(C)C
[28] CN(C)C(=O)c1ccc(-c2ccc([C@@H]3[C@@H](CO)N4CCCCN(CCC(F)(F)F)C[C@@H]34)cc2)cc1
[29] COc1ccc(C#Cc2ccc([C@@H]3[C@@H](CO)N4C(=O)CN(C(=O)C5CCOCC5)C[C@@H]34)cc2)cc1
[30] CCOC(=O)C1=CCN(S(=O)(=O)c2ccccc2C)C1c1ccc(Br)cc1 (stereo unspecified)
[31] CCCC(=O)Nc1ccc2c(c1)C(=O)N(C)[C@@H]1CC[C@H](CC(=O)NCCCN(C)C)O[C@@H]1CO2
[32] O=C(O)C[C@@H]1C[C@H]2c3cc(NC(=O)Nc4ccc(C(F)(F)F)cc4)ccc3O[C@H]2[C@@H](CO)O1
entry no.	25	26	27	28	29	30	31	32
rRNA inh HTS	-34.2	-1.7	-0.4	0.6	-0.3	-6.7	1.1	2.9
rRNA inh HTS RFP	22.4	1.2	-2.6	2.7	3.8	-3.6	0.2	-0.3
rRNA inh HTS OD600	-54.7	-6.1	12.9	0.3	-10.6	-5.5	1.5	-3.1

Whole records, looked up by structure.
C[C@@H]1CN([C@H](C)CO)S(=O)(=O)c2ccc(C3=CCCCC3)cc2O[C@H]1CN(C)Cc1cccnc1 reads rRNA inh HTS = -34.2; rRNA inh HTS RFP = 22.4; rRNA inh HTS OD600 = -54.7
C[C@@H]1CN([C@@H](C)CO)S(=O)(=O)c2ccc(-c3ccc(C#N)cc3)cc2O[C@@H]1CN(C)C(=O)CN(C)C reads rRNA inh HTS = -0.4; rRNA inh HTS RFP = -2.6; rRNA inh HTS OD600 = 12.9

Following part
[33] O=C(C(=O)N1CCN(S(=O)(=O)c2ccc(C(F)(F)F)cc2)CC1)c1cccc(C(F)(F)F)c1
[34] CO[C@H](CN(C)S(=O)(=O)c1ccc(C)cc1)[C@H](C)CN(Cc1ccccc1Cl)[C@@H](C)CO
[35] C[C@@H]1CCCCO[C@H](CN(C)C(=O)C2CCCCC2)[C@@H](C)CN([C@@H](C)CO)C(=O)c2cc(NC(=O)C3CCCCC3)ccc2O1
[36] CS(=O)(=O)N1CC2(C1)[C@@H](c1ccccc1)[C@@H](CO)N2CC1CC1
[37] O=C(c1ccc2c(c1)OCO2)N1C[C@H]2[C@@H](c3ccccc31)[C@H](CO)N2Cc1ccc2c(c1)OCO2
[38] CO[C@@H]1CN(C)C(=O)c2cc(NC(=O)c3cnccn3)ccc2OC[C@@H](C)N(CCc2ccccc2)C[C@H]1C
[39] Cn1c(=O)c2c(ncn2CC(=O)O)n(C)c1=O
[40] C[C@@H]1CN([C@H](C)CO)C(=O)c2cccc(NC(=O)c3nc4ccccc4s3)c2O[C@@H]1CN(C)C(=O)NC1CCCCC1
entry no.	33	34	35	36	37	38	39	40
rRNA inh HTS	2.8	-17.5	-5.2	1.8	-3.9	-3.5	9.8	-11.6
rRNA inh HTS RFP	-3.5	13.0	-2.2	-2.4	20.0	1.5	-1.1	-0.5
rRNA inh HTS OD600	4.8	-58.2	-6.3	5.3	-17.1	-5.6	11.1	-7.3

A second format for part of the listing above:
Second line of a record: rRNA inh HTS	rRNA inh HTS RFP	rRNA inh HTS OD600
[28] CN(C)C(=O)c1ccc(-c2ccc([C@@H]3[C@@H](CO)N4CCCCN(CCC(F)(F)F)C[C@@H]34)cc2)cc1
    0.6	2.7	0.3
[36] CS(=O)(=O)N1CC2(C1)[C@@H](c1ccccc1)[C@@H](CO)N2CC1CC1
    1.8	-2.4	5.3
[15] Cc1cccc(C)c1-n1nnnc1C1(C)CCC(=O)N1Cc1cccs1 (stereo unspecified)
    -20.6*	3.6*	-11.2*
[38] CO[C@@H]1CN(C)C(=O)c2cc(NC(=O)c3cnccn3)ccc2OC[C@@H](C)N(CCc2ccccc2)C[C@H]1C
    -3.5	1.5	-5.6
[1] O=C(C[C@@H]1C=C[C@@H](NC(=O)C2CC2)[C@H](CO)O1)NCCCN1CCOCC1
    1.8	-0.6	3.8
[39] Cn1c(=O)c2c(ncn2CC(=O)O)n(C)c1=O
    9.8	-1.1	11.1
[23] C[C@@H]1CN([C@H](C)CO)S(=O)(=O)c2ccc(C#C[C@@H](C)O)cc2O[C@@H]1CN(C)C(=O)c1ccncc1
    0.8	-2.8	9.5

Carrying on.
[41] CC(C)C(=O)Nc1ccc2c(c1)C(=O)N(C)[C@H]1CC[C@@H](CC(=O)N[C@@H](C)c3ccccc3)O[C@@H]1CO2
[42] C[C@H](CO)N1C[C@H](C)[C@H](CN(C)C(=O)Nc2ccc(F)cc2)Oc2c(NS(=O)(=O)c3ccc(Cl)cc3)cccc2C1=O
[43] C[C@@H]1CN([C@H](C)CO)C(=O)c2cc(C#C[C@@H](C)O)cnc2O[C@H]1CN(C)CC1CCOCC1
[44] COc1ccc(NC(=O)N(C)C[C@@H]2OCCCC[C@@H](C)Oc3ccc(NC(=O)c4ccncc4)cc3C(=O)N([C@H](C)CO)C[C@@H]2C)cc1
[45] CNC[C@H]1Oc2ccc(NC(=O)CCC(F)(F)F)cc2C(=O)N([C@H](C)CO)C[C@@H]1C
entry no.	41	42	43	44	45
rRNA inh HTS	-0.8	1.0	2.0	4.4	2.5
rRNA inh HTS RFP	0.2	1.5	-3.3	-3.1	-0.7
rRNA inh HTS OD600	2.0	1.6	10.1	5.8	2.9

Source: PubChem BioAssay (Broad Institute)

Some of the compounds tested; the hit share may differ from the screen's.
